Beta apoptosis – beta cell apoptosis inhibition; INS-1E cytokine-induced death, ATP luminescence, 48 h; percent of positive-control rescue, neutral wells zero; protection from apoptosis, % (no concentration beside the values); actives 0.8% (n = 300,000); AID 435005;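 active = all replicates at 75% or more, or half of them and the mean; inconclusive = half reach 75% but not the mean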;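 note: 0% = cytokine-treated negative control wells and 100% = positive control rescue; higher means more ATP so stronger rescue from cytokine killing; wells of about 40 µL received 100 nL stock; the first replicate is given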
Ecoli rRNA inh – selective bacterial rRNA inhibition in E. coli. GFP signal change (wild-type ribosome), % (no concentration beside the values). AID 720706. E. coli WT GFP vs humanized-ribosome RFP mutants, fluorescence, 24 h; stronger effect = lower value; DMSO median 0, no signal -100. actives 1.6% (n = 350,000);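 active = significant combined selectivity score with lowered wild-type GFP, culture density cut under 30%, mutant RFP and density less affected; inactive = any of these conditions unmet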; note: one replicate is shown; some compounds called inactive have numbers as strong as hits
Beta2AR agonist – activates human beta-2 adrenergic receptor causing internalization; P07550; Am2.2-beta2AR cells, FAP receptor internalization, flow cytometry; reference of the scale not given here; response, % (concentration not given with the values); actives 0.43% (n = 340,000); AID 504454;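 active = response above a set limit, near 3 SD of response in nonfluorescent compounds, cut at about 42% in these data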;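 note: stock transfer was 100 nL into about 11 µL; a reference agonist was the positive control; negative values mostly stem from fluorescent compounds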
Target sequence (P07550 whole entry, looked up): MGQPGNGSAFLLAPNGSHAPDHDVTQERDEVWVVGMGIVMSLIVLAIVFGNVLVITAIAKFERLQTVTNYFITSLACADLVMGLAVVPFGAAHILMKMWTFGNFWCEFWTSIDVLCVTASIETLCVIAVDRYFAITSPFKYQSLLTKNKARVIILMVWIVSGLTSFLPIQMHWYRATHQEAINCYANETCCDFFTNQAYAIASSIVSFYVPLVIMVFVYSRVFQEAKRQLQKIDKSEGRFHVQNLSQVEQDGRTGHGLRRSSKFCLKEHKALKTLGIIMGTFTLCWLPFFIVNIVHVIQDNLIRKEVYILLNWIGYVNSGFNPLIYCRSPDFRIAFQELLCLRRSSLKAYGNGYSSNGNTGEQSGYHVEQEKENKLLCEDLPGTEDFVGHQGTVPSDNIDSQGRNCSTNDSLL
Calb FLC – affects C. albicans growth with fluconazole. C. albicans CaCi-2 (fluconazole-resistant clinical isolate) + fluconazole, Alamar Blue growth, 48 h. actives 0.57% (n = 300,000). growth inhibition, % (test concentration not listed);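 active = most replicates above 75%; inconclusive = exactly half above 75%; inactive = most below 75%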;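 note: all wells also contain fluconazole at 8 µg/ml as a sub-toxic cotreatment; 0% = median of DMSO wells and 100% = median of geldanamycin control wells; wells of about 8 µL received 7.5 nL stock; the first replicate is given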
LANA-H2A inh – blocks KSHV LANA binding to histone H2A/H2B | Q9QR71 | cell-free LANA-H2A/H2B peptide, fluorescence polarization | inhibition, % (test concentration not listed) | actives 0.6% (n = 320,000) | AID 2629; in the data active = inhibition mostly above about 10%, no sharp cut-off; inactive = mostly below about 6.7%;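 note: stock transfer was 7.5 nL into about 10 µL; 0% = median of vehicle wells and 100% = median of positive control wells; one replicate is shown; the record names a cut of 25% in any replicate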
Bfl-1 A1 inh – inhibitors of the anti-apoptotic protein A1, read as caspase activation; MEF A1-2A-BIM cells, Caspase-Glo 3/7 luminescence, 3 h; percent of clofoctol response, vehicle zero; caspase activation, % (test concentration not listed); actives 0.066% (n = 330,000);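 active = over half of replicate activation scores above 10%, or exactly half above 10 with the replicate mean above 10; inconclusive = replicate mean below 10 yet half the replicates above 10; inactive = over half of replicates below 10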;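 note: wells of about 30 µL received 50 nL stock; many hits fall short of the cut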
T cruzi repl – T. cruzi replication inhibition. inhibition, % (test concentration not listed). T. cruzi beta-gal in NIH3T3, luminescence, 90 h. actives 1.4% (n = 300,000);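 active = mean inhibition across valid replicates above about 55%, limit read from the data; inconclusive = mean below that limit but half or more replicates reach it; inactive = mean below it, under half of replicates reach it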;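 note: signal also drops with host cell toxicity which is not excluded here; 0% = plate median of DMSO wells and 100% = zero luminescence signal; higher percent means less beta-gal luminescence so fewer parasites; stock transfer was 50 nL into about 50 µL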
ALR inh – blocks human ALR sulfhydryl oxidase activity; P55789; purified ALR, DTT oxidation, H2O2 HRP-luminol luminescence; inhibition, % (test concentration not listed); actives 3.8% (n = 290,000);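 active = mean and each replicate at 75% or more; inconclusive = only one of the two met; inactive = neither met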;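 note: stock transfer was 7.5 nL into about 7.5 µL; 0% = neutral wells and 100% = wells with inactivated enzyme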
Target sequence (P55789 whole entry, looked up): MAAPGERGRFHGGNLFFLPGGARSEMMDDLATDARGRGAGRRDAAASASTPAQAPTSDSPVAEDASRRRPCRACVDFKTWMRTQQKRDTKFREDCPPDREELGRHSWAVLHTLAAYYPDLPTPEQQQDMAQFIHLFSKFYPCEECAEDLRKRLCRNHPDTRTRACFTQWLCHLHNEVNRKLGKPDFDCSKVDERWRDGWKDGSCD
Ecoli rRNA inh OD600 – also measured in Ecoli rRNA inh; calls as there; OD600 change, %; measured here: OD600 growth;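 optical density of the mix in the first replicate; 0 = DMSO median and -100 = no signal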
Ecoli rRNA inh RFP – further read-out of Ecoli rRNA inh, marked with its call; RFP signal change, %; measured here: RFP humanized mutant strains;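 first replicate; 0 = DMSO median and -100 = no signal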
Starred values were filed as active, the others as inactive. The list is partial; count on the stated rates, not on these rows.

What do the screens show for `C[C@H](O)[C@@H](C(=O)N1CCN(C(=O)OC(C)(C)C)CC1)n1cc(CCCCNC(=O)OC(C)(C)C)nn1`?
Beta apoptosis: -12.1; Ecoli rRNA inh: 4.6; Beta2AR agonist: 1.7; Calb FLC: -2.9; LANA-H2A inh: -0.8; Bfl-1 A1 inh: -2.2; T cruzi repl: -12.7; ALR inh: -14.6; Ecoli rRNA inh OD600: 11.1; Ecoli rRNA inh RFP: 0.0

How did O=C(CNC(=O)C12CC3CC(CC(C3)C1)C2)N/N=C\c1ccco1 do in these assays?
Beta apoptosis: -6.1; Ecoli rRNA inh: 3.1; Beta2AR agonist: -0.5; Calb FLC: -22.9; LANA-H2A inh: 3.9; Bfl-1 A1 inh: inconclusive; T cruzi repl: 3.0; ALR inh: 1.7; Ecoli rRNA inh OD600: 8.3; Ecoli rRNA inh RFP: -0.6

What do the screens show for `Oc1ccc2ccccc2c1-c1sc(Nc2ccccc2)n[n+]1-c1ccc(F)cc1`?
Beta apoptosis: -7.3; Ecoli rRNA inh: 7.8; Beta2AR agonist: -171.5; Calb FLC: 5.8; LANA-H2A inh: -0.1; Bfl-1 A1 inh: 0.7; T cruzi repl: 12.1; ALR inh: -7.7; Ecoli rRNA inh OD600: -3.6; Ecoli rRNA inh RFP: 9.2

Results for O=C(C1CC(=O)N(c2ccc(F)cc2)C1)N1CCN(c2ccccc2)CC1 (stereo not drawn) ?
Beta apoptosis: 5.8; Ecoli rRNA inh: 3.4; Beta2AR agonist: 0.5; Calb FLC: 0.1; LANA-H2A inh: 1.0; Bfl-1 A1 inh: -0.2; T cruzi repl: -1.6; ALR inh: 4.7; Ecoli rRNA inh OD600: 5.8; Ecoli rRNA inh RFP: 0.6

Results for CN(C)S(=O)(=O)c1ccc(C(=O)Nc2nnc(Cc3ccccc3)s2)cc1 ?
Beta apoptosis: -1.0; Beta2AR agonist: 10.0; Calb FLC: -4.8; LANA-H2A inh: 2.5; Bfl-1 A1 inh: 0.6; T cruzi repl: 0.5; ALR inh: -0.6

What do the screens show for `Nc1nc(=S)c2ncn([C@@H]3O[C@H](CO)[C@@H](O)[C@H]3O)c2[nH]1`?
Beta apoptosis: 11.6; Beta2AR agonist: 0.1; LANA-H2A inh: -2.4; Bfl-1 A1 inh: inconclusive; ALR inh: -11.7

What do the screens show for `CC(C)n1nc(C(=O)Nc2cccc(S(=O)(=O)NCc3ccco3)c2)c2ccccc2c1=O`?
Beta apoptosis: 0.5; Ecoli rRNA inh: -21.4; Beta2AR agonist: 11.9; Calb FLC: -0.3; LANA-H2A inh: 0.2; Bfl-1 A1 inh: 0.3; T cruzi repl: 22.9; ALR inh: -8.6; Ecoli rRNA inh OD600: -18.6; Ecoli rRNA inh RFP: 10.6

What do the screens show for `Cc1ccc(-n2c(SCc3ccc([N+](=O)[O-])cc3)nc3ccccc3c2=O)cc1`?
Beta apoptosis: 16.8; Beta2AR agonist: -1.9; Calb FLC: 44.1; LANA-H2A inh: -0.2; Bfl-1 A1 inh: 0.8; T cruzi repl: inconclusive; ALR inh: 2.2

How did CC(=O)Nc1ccc(S(=O)(=O)N(C)c2ccc(OCC(=O)OCC(=O)N3CCCCC3)cc2)cc1 do in these assays?
Beta apoptosis: -7.1; Ecoli rRNA inh: 4.8; Beta2AR agonist: 1.7; Calb FLC: -8.2; LANA-H2A inh: 1.7; Bfl-1 A1 inh: 0.1; T cruzi repl: -6.8; ALR inh: 1.4; Ecoli rRNA inh OD600: 6.5; Ecoli rRNA inh RFP: 0.4

What do the screens show for `Cc1ccc(-n2c(SCC(=O)NC3CCS(=O)(=O)C3)nc3ccccc3c2=O)cc1` (stereo not drawn)?
Beta apoptosis: -6.6; Ecoli rRNA inh: 4.6; Beta2AR agonist: -0.3; Calb FLC: 2.7; LANA-H2A inh: 1.0; Bfl-1 A1 inh: 2.1; T cruzi repl: 10.0; ALR inh: -10.6; Ecoli rRNA inh OD600: -2.6; Ecoli rRNA inh RFP: -3.0

What do the screens show for `COC(=O)C1CCN(C(=O)C2CCN(C(=O)[C@@H](NS(=O)(=O)c3ccc(C)cc3)C(C)C)CC2)CC1`?
Beta apoptosis: -2.2; Beta2AR agonist: -1.5; Calb FLC: -5.3; LANA-H2A inh: -1.7; Bfl-1 A1 inh: -0.4; T cruzi repl: 20.5; ALR inh: -7.8

Results for CCN1CCN(c2c(Cl)cccc2NC(=O)c2ccc([N+](=O)[O-])cc2)CC1 ?
Beta apoptosis: 0.4; Ecoli rRNA inh: 1.9; Beta2AR agonist: -1.4; Calb FLC: -10.3; LANA-H2A inh: 2.9; Bfl-1 A1 inh: 0.3; T cruzi repl: 18.8; ALR inh: -17.5; Ecoli rRNA inh OD600: 4.1; Ecoli rRNA inh RFP: -2.4

What do the screens show for `CC(=O)c1ccc(N(C(=O)c2ccco2)C(C(=O)NC2CCCC2)c2ccc(N3CCOCC3)cc2)cc1` (stereo not drawn)?
Beta apoptosis: 0.0; Ecoli rRNA inh: 14.0; Beta2AR agonist: -1.8; Calb FLC: 6.9; LANA-H2A inh: -1.9; Bfl-1 A1 inh: 0.9; T cruzi repl: 6.5; ALR inh: -4.6; Ecoli rRNA inh OD600: 16.8; Ecoli rRNA inh RFP: 0.6

Results for Cc1cccnc1Sc1c([N+](=O)[O-])ncn1C ?
Beta apoptosis: -2.2; Beta2AR agonist: 3.1; Calb FLC: 11.2; LANA-H2A inh: -1.7; Bfl-1 A1 inh: 0.1; T cruzi repl: -14.0; ALR inh: 14.4

Results for Cc1c(C)c2cc(Cl)c(OCC(=O)N3CCN(c4ccc(F)cc4)CC3)cc2oc1=O ?
Ecoli rRNA inh: 3.7; Beta2AR agonist: -1.3; Calb FLC: 0.4; LANA-H2A inh: 5.8; Bfl-1 A1 inh: 0.7; T cruzi repl: -2.6; ALR inh: -1.5; Ecoli rRNA inh OD600: 9.5; Ecoli rRNA inh RFP: -1.9

Results for COc1ccc(N2C(=O)[C@@H]3[C@H](C2=O)[C@H]2c4ccccc4C=CN2[C@@H]3C(=O)Nc2ccccc2)cc1 ?
Beta apoptosis: -4.0; Beta2AR agonist: 7.0; LANA-H2A inh: -19.8; Bfl-1 A1 inh: 0.7; ALR inh: 10.9

How did CC(=O)c1cc2c(cc1NC(=O)CCc1ccccc1)OCO2 do in these assays?
Beta apoptosis: 7.0; Beta2AR agonist: -2.9; Calb FLC: 0.1; LANA-H2A inh: 4.9; Bfl-1 A1 inh: 1.1; T cruzi repl: -12.2; ALR inh: -3.7

Results for CSc1ccc(/C=C(\C#N)C(=O)Nc2cccc(C)c2)cc1 ?
Beta apoptosis: 2.5; Ecoli rRNA inh: -1.1; Beta2AR agonist: -0.7; Calb FLC: -7.4; LANA-H2A inh: 1.4; Bfl-1 A1 inh: -1.5; T cruzi repl: -15.4; ALR inh: 1.0; Ecoli rRNA inh OD600: -4.1; Ecoli rRNA inh RFP: -9.2

Results for CCOc1ncccc1C(=O)N(C)CC(=O)Nc1ccccc1SC ?
Beta apoptosis: -0.7; Beta2AR agonist: 11.0; Calb FLC: 3.3; LANA-H2A inh: 1.7; Bfl-1 A1 inh: 1.0; T cruzi repl: -32.2; ALR inh: 1.1

Results for Cc1ccc(SC(=O)COc2ccc(C)c(C)c2)cc1 ?
Beta apoptosis: -24.9; Beta2AR agonist: -2.0; Calb FLC: -7.3; LANA-H2A inh: 0.0; Bfl-1 A1 inh: 0.1; T cruzi repl: -16.3; ALR inh: 98.5*

What do the screens show for `O=C(NCc1ccc2c(c1)OCO2)C(=O)NCC1OCCN1S(=O)(=O)c1ccc(F)cc1` (stereo not drawn)?
Beta apoptosis: 1.9; Ecoli rRNA inh: 7.5; Beta2AR agonist: -2.9; Calb FLC: -9.0; LANA-H2A inh: 6.7; Bfl-1 A1 inh: -0.2; T cruzi repl: 0.0; ALR inh: -0.5; Ecoli rRNA inh OD600: 4.9; Ecoli rRNA inh RFP: 2.5

What do the screens show for `CC1S/C(=C(\C#N)C(N)=O)N(c2ccc(F)cc2)C1=O` (stereo not drawn)?
Beta apoptosis: 3.2; Beta2AR agonist: 4.1; Calb FLC: -20.9; LANA-H2A inh: -6.8; Bfl-1 A1 inh: -0.3; T cruzi repl: -10.4; ALR inh: 2.2

Results for CC1(C)CC(=O)C(C=NCCc2ccc(S(N)(=O)=O)cc2)=C(O)C1 ?
Beta apoptosis: -5.4; Beta2AR agonist: 10.6; Calb FLC: -8.0; LANA-H2A inh: -0.6; Bfl-1 A1 inh: 0.8; T cruzi repl: -3.2; ALR inh: -1.0

How did C/C(=N\NC(=O)c1ccc(CN2CCOCC2)cc1)c1ccc([N+](=O)[O-])cc1 do in these assays?
Beta apoptosis: 2.3; Ecoli rRNA inh: 4.5; Beta2AR agonist: 2.7; Calb FLC: 15.4; LANA-H2A inh: 0.0; Bfl-1 A1 inh: 0.6; T cruzi repl: -3.6; ALR inh: -4.5; Ecoli rRNA inh OD600: -3.2; Ecoli rRNA inh RFP: -0.1

Results for CCCCCOc1ccc(C(=O)Nc2ccc(S(=O)(=O)Nc3cc(C)on3)cc2)cc1 ?
Beta apoptosis: -2.0; Ecoli rRNA inh: 4.6; Beta2AR agonist: -2.4; Calb FLC: -18.1; LANA-H2A inh: 0.8; Bfl-1 A1 inh: 0.4; T cruzi repl: -17.8; Ecoli rRNA inh OD600: 13.4; Ecoli rRNA inh RFP: -1.8

How did Cn1c(=O)[nH]c(=O)c2c1nc(CN1CCN(c3cccc(Cl)c3)CC1)n2CCN1CCOCC1 do in these assays?
Beta apoptosis: -1.0; Beta2AR agonist: 0.2; Calb FLC: 10.5; LANA-H2A inh: -1.6; Bfl-1 A1 inh: -0.4; T cruzi repl: -2.0; ALR inh: 0.3

How did O=C(Cc1ccccc1)Nc1nnc(-c2ccccc2)o1 do in these assays?
Beta apoptosis: -9.5; Ecoli rRNA inh: 15.8; Beta2AR agonist: 0.4; Calb FLC: -1.3; LANA-H2A inh: -3.3; Bfl-1 A1 inh: 0.6; T cruzi repl: -7.3; ALR inh: -1.7; Ecoli rRNA inh OD600: 13.6; Ecoli rRNA inh RFP: 7.5

What do the screens show for `CCCNC(=O)c1ccc(N2CCC3(CC2)CC(c2ccccc2)=NO3)c(NC(=O)c2cccc(OC)c2)c1`?
Ecoli rRNA inh: 3.7; Beta2AR agonist: -8.2; Calb FLC: 4.6; LANA-H2A inh: -1.9; Bfl-1 A1 inh: -1.9; T cruzi repl: 38.5; ALR inh: 0.1; Ecoli rRNA inh OD600: 0.1; Ecoli rRNA inh RFP: -7.8

Results for CC(C1CC1)N(Cc1ccccc1)C(=O)NC(=O)c1ccccc1 (stereo not drawn) ?
Beta apoptosis: -2.9; Ecoli rRNA inh: 14.2; Beta2AR agonist: -4.8; Calb FLC: 1.5; LANA-H2A inh: 0.8; Bfl-1 A1 inh: 0.3; T cruzi repl: -11.1; ALR inh: 11.4; Ecoli rRNA inh OD600: 7.8; Ecoli rRNA inh RFP: -6.8

Results for O=C(Nc1nc(-c2cccs2)c(-c2cccs2)s1)C1CCCC1 ?
Ecoli rRNA inh: 4.0; Beta2AR agonist: -1.0; Calb FLC: 0.5; T cruzi repl: 0.8; Ecoli rRNA inh OD600: 10.2; Ecoli rRNA inh RFP: -1.2

How did CCCOc1ccc(C(=O)NNC(=S)NC(C)=O)cc1 do in these assays?
Beta apoptosis: 33.6; Beta2AR agonist: 1.5; Calb FLC: 102.3*; LANA-H2A inh: -0.4; Bfl-1 A1 inh: -0.3; T cruzi repl: -8.7; ALR inh: 30.9

Assay outcomes (PubChem BioAssay)
